Source: PubChem BioAssay (several laboratories)
Insulin prom inh – TRM-6 insulin promoter activity inhibition. TRM-6 cells (human fetal islet line), insulin promoter-eGFP reporter, imaging; reporter expression induced with tamoxifen. inhibition, % at 2 µM. hit rate 0.9% among 130,000. AID 1273;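 active = inhibition above the mean plus 3 SD, with well images judged a real hit on visual review, cut at about 60% in these data, passing the limit was not always enough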
RGS16-Gao – RGS16-Galphao interaction regulator (human) | O15492+P09471 | bead-based flow cytometry RGS16-Galphao binding, fluorescence; actives lie on both sides | hit rate 0.38% among 220,000 | AID 1441 | binding response (% of control), % at 10 µM;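 active = below 25% or above 175%, edge rows of some plates excepted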;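 also: Galphao activated by GDP with aluminum fluoride before binding; 100% = wells without compound and 0% = beads without RGS; some results beyond the cut were filed as inactive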
GALR2 agonist – agonists of human galanin receptor 2 (GALR2); GALR2-expressing cells, agonist activation read-out; hit rate 0.48% among 140,000; AID 803; O43603; activation, %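 (tested at 5 µM)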;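 active = above mean plus 3 SD of all compounds, about 5% in these data, not always enough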;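 also: 0% = vehicle buffer wells and 100% = reference agonist at full effect; tested in CHO reporter cells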
PKD1 kinase inh – inhibitors of human PKD1 kinase. PKD1 kinase fluorescence polarization assay. Q15139. AID 797. inhibition, %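 (about 10 µM by stock and volumes)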. hit rate 0.056% among 200,000;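 active = inhibition of 50% or more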;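 also: controls were vehicle for no effect and a reference inhibitor for full effect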
Target sequence (Q15139 whole entry, looked up): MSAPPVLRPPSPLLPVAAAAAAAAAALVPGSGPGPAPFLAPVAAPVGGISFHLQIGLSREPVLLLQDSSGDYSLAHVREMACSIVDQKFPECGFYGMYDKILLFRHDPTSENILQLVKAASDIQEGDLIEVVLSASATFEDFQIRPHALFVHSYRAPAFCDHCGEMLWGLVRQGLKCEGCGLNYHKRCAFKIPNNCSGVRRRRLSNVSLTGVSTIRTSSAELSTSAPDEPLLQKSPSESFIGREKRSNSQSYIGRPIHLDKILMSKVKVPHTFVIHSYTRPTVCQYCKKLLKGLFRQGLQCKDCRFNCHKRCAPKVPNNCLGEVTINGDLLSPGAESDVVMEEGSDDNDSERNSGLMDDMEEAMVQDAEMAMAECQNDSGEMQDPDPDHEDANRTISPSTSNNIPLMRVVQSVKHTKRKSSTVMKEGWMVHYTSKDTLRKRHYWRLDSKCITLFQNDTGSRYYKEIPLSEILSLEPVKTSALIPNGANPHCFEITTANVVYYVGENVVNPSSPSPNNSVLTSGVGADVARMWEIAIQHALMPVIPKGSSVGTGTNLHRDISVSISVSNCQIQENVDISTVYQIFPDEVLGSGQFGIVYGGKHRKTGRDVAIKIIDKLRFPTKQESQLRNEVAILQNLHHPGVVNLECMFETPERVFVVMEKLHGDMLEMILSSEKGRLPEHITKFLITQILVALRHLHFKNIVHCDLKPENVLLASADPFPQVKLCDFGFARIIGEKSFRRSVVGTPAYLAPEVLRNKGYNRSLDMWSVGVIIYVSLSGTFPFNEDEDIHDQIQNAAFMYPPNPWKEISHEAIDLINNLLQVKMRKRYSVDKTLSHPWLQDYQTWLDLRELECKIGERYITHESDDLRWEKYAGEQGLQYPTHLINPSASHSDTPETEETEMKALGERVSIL
HSV augment – increases HSV replication in cells; HSV replication augmentation in cells, fold increase; hit rate 0.005% among 220,000; AID 1956; maximum fold increase;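 active = peak rise of 1.5-fold or more in the series; tested in PC3 cells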;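 also: first round at 10 µM; read as green reporter fluorescence; hits show the peak of a series up to 25 µM; 1 = signal of infected wells without compound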
Insulin prom inh cell count – also measured in Insulin prom inh; calls as there; normalized cell count, %; measured here: cell count, toxicity; reference of the scale not given here;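 cells exposed to compound for 48 h; stained nuclei by imaging scaled within each plate; lower means fewer cells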
HSV augment primary fold – second read-out of HSV augment, no call of its own (marks repeat the call); fold increase; compound at 10 µM; measured here: primary screen fold increase 10 uM; tested in PC3 cells;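 GFP signal in the first replicate; 1 = infected wells without compound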
The depositor's hits bear a star; i = inactive; · = not tested or not shown.

canonical_smiles | GALR2 agonist | PKD1 kinase inh | RGS16-Gao | Insulin prom inh cell count | HSV augment | Insulin prom inh | HSV augment primary fold
COc1cccc(-c2noc(-c3cccs3)n2)c1 | -4.3 | -4 | 103 | 81 | i | -20 | 0.8
CCN(c1ccccc1)S(=O)(=O)c1ccc(Cl)c(NC(=O)CSc2nnc(C)s2)c1 | · | -6 | 96 | · | i | · | 0.92
O=C1NC(=S)N/C1=C\c1ccc(N2CCOCC2)cc1 | · | -1 | 97 | 165 | i | 15 | 1.1
CCOc1ccc(Cl)cc1/C=N/NC(=O)CNC(=O)c1ccccc1 | -1.3 | 17 | 103 | 123 | i | -30 | 0.88
O=C(Cn1cnc2cc(Cl)ccc2c1=O)Nc1ccc2c(c1)OCO2 | 0.0 | 2 | 98 | 128 | i | -45 | 0.94
O=C(Cn1nc(-c2ccccc2F)ccc1=O)NCc1ccc2c(c1)OCO2 | -3.2 | 4 | 103 | 121 | i | -3 | 1.2
O=C(Nc1ccc(C(=O)N2CCOCC2)cc1)Nc1cccc(Cl)c1 | -1.1 | -7 | 113 | 135 | i | 11 | 0.83
CCCCOC(=O)Nc1cc(OC)c(Cl)cc1OC | -0.7 | -1 | 174 | 141 | i | 23 | 0.83
CCN(CC)CCCN1C(=O)C(=O)/C(=C(/O)c2ccc3c(c2)OCO3)C1c1ccccn1 (stereo not given) | -2.2 | -3 | · | 181 | · | -12 | ·
CCCCOc1ccc(CNC(=O)NS(=O)(=O)c2ccc(OCC)cc2)cc1 | -2.2 | -4 | 104 | 130 | i | 23 | 0.92
O=C(CC(=O)NCc1cccnc1)NCc1cccnc1 | -1.6 | 10 | 85 | 87 | i | -42 | 1.1
CCN1CCN(c2cc(C)c3cc(NC(=S)N4CCC5(CC4)OCCO5)ccc3n2)CC1 | · | 3 | 103 | 135 | i | -14 | 0.81
Cc1nc2ccc(NC(=O)c3ccc(Cl)c(S(=O)(=O)N(C)c4ccccc4)c3)cc2s1 | -2.2 | 7 | 77 | 84 | · | -46 | ·
COc1ccc(CNC(=O)c2ccc3c(c2)N(C)C(=O)CS3=O)cc1 (stereo not given) | -2.4 | -12 | 103 | · | i | · | 0.95
COc1ccc(Cl)cc1C(=O)Nc1ccc(NC(C)=O)cc1 | · | -2 | 101 | · | i | · | 1.1
COc1cccc(-n2c(C)nn(CCOc3ccccc3)c2=O)c1 | · | -9 | 98 | · | i | · | 0.94
CC(C)C[C@H](NC(=O)OC(C)(C)C)C(=O)N1CCC(C(=O)N[C@@H](Cc2ccccc2)C(=O)O)CC1 | -1.3 | 4 | 84 | · | · | · | ·
O=C(Nc1ccccc1[N+](=O)[O-])c1nc[nH]c1C(=O)NCCO | -1.8 | 4 | 100 | 59 | i | -15 | 0.74
COc1cc(-c2nnc(SC(C)C(=O)Nc3c(C)n(C)n(-c4ccccc4)c3=O)o2)cc(OC)c1OC (stereo not given) | -0.8 | -2 | 110 | 105 | i | 0 | 0.75
COc1ccc(N/C(N)=N/c2nc(C)cc(C)n2)c(OC)c1 | · | -4 | 100 | 122 | i | -40 | 0.95
O=C(CCCn1c(=O)[nH]c2cc(Cl)ccc2c1=O)NC1CCCCCCC1 | -1.5 | -14 | 102 | 73 | i | 50 | 0.91
CCN(CC)CCNc1nc(-c2cccs2)c(CC(=O)O)s1 | · | -3 | 98 | · | i | · | 0.99
Cc1cccc(NC(=O)COc2ccc(/C=C\c3[nH]c(=O)[nH]c(=O)c3[N+](=O)[O-])cc2)c1 | · | 2 | 98 | · | i | · | 0.93
Cc1ccc2nc(C)cc(N3CCOCC3)c2c1 | -1.7 | -4 | 99 | 84 | i | 17 | 0.95
CN(C)C(=S)NC1(C)CCS(=O)(=O)C1 (stereo not given) | -0.1 | -10 | 144 | 79 | i | 37 | 0.91
CCOC(=O)N1CCC(NS(=O)(=O)c2ccc(NC(C)=O)c(Cl)c2)CC1 | · | · | 97 | · | i | · | 1
CC(Cl)C(=O)NNC(=O)CNS(=O)(=O)c1ccccc1 (stereo not given) | · | -1 | 112 | 53 | i | -33 | 0.92
CCN(C(=O)c1cc2ccccc2o1)C12CC3CC(CC(C3)C1)C2 | · | -5 | 100 | 159 | i | -42 | 0.94
O=C(Nc1cccc(S(=O)(=O)N2CCCCC2)c1)c1ccc2c(=O)n3c(nc2c1)CCCCC3 | 0.3 | 0 | 99 | · | i | · | 0.89
O=C(NCC1CCCO1)/C(=C/c1ccc(Cl)cc1)NC(=O)c1ccccc1 (stereo not given) | -1.2 | -8 | 100 | · | i | · | 0.97

Some of the entries so far, as labelled records:
> COc1cc(-c2nnc(SC(C)C(=O)Nc3c(C)n(C)n(-c4ccccc4)c3=O)o2)cc(OC)c1OC (stereo not given)
  GALR2 agonist: -0.8
  PKD1 kinase inh: -2
  RGS16-Gao: 110
  Insulin prom inh cell count: 105
  HSV augment: i
  Insulin prom inh: 0
  HSV augment primary fold: 0.75
> O=C(Cn1cnc2cc(Cl)ccc2c1=O)Nc1ccc2c(c1)OCO2
  GALR2 agonist: 0.0
  PKD1 kinase inh: 2
  RGS16-Gao: 98
  Insulin prom inh cell count: 128
  HSV augment: i
  Insulin prom inh: -45
  HSV augment primary fold: 0.94
> O=C(Nc1ccc(C(=O)N2CCOCC2)cc1)Nc1cccc(Cl)c1
  GALR2 agonist: -1.1
  PKD1 kinase inh: -7
  RGS16-Gao: 113
  Insulin prom inh cell count: 135
  HSV augment: i
  Insulin prom inh: 11
  HSV augment primary fold: 0.83
> COc1cccc(-n2c(C)nn(CCOc3ccccc3)c2=O)c1
  GALR2 agonist: ·
  PKD1 kinase inh: -9
  RGS16-Gao: 98
  Insulin prom inh cell count: ·
  HSV augment: i
  Insulin prom inh: ·
  HSV augment primary fold: 0.94

(next part)
canonical_smiles | GALR2 agonist | PKD1 kinase inh | RGS16-Gao | Insulin prom inh cell count | HSV augment | Insulin prom inh | HSV augment primary fold
Cc1ccccc1N1CCN(C(=O)CCN2C(=O)c3ccccc3C2=O)CC1 | -1.0 | -5 | 108 | 146 | i | -7 | 0.95
O=C1OC(C(=O)O)Cc2ccccc21 (stereo not given) | -1.6 | -15 | 192 | 73 | i | -271 | 0.88
C/C(=N\NC(=S)Nc1c(C)cccc1C)c1ccc(OC(F)F)cc1 | -1.5 | 6 | 104 | 69 | i | 33 | 0.84
CCOC(=O)Cc1csc(SC(C)C(=O)Nc2ccc(NC(C)=O)cc2)n1 (stereo not given) | -1.9 | -7 | 99 | 130 | i | 27 | 0.85
N#C/C(=C\c1ccncc1)c1nc2ccccc2o1 | · | · | 98 | · | i | · | 1.1
CC(C)CCN1CCN(CCCn2cccn2)CC1CCO (stereo not given) | · | -9 | 98 | · | i | · | 1.1
O=S(=O)(NCC(c1ccco1)N1CCN(c2ccccc2F)CC1)c1ccccc1 (stereo not given) | -0.6 | -12 | 105 | 108 | i | -19 | 1
Nc1nonc1-c1noc(N2CCOCC2)n1 | -2.1 | 6 | 100 | 68 | i | -66 | 0.87
Cc1ccc(S(=O)(=O)Nc2ccc3nc(N)sc3c2)cc1 | -2.2 | 14 | 100 | 76 | i | 21 | 0.84
Cc1cccn2c(/C=N/OCc3ccc(F)cc3)c(-c3ccc(Cl)cc3)nc12 | -2.1 | -3 | 103 | 81 | i | 12 | 0.97
Cc1ccc(/C=N/c2sc3c(c2C#N)CCC3)s1 | -3.2 | -1 | 101 | · | i | · | 0.92
S=C(NC1CC1)N1CCc2ccccc2C1 | · | -1 | 98 | 134 | i | 29 | 1.1
O=C(CSc1nnc(-c2ccco2)n1Cc1ccco1)NCc1cccs1 | -2.0 | 6 | 100 | · | i | · | 0.83
Cc1nn(CCC#N)c2[nH]c(=O)cc(C(F)(F)F)c12 | · | -2 | 109 | · | i | · | 0.91
CCSCc1nnc(SCC(=O)Nc2ccc(F)cc2)n1CC | · | -2 | 103 | · | i | · | 0.82
CSc1nc2ccc(NS(=O)(=O)c3ccccc3F)cc2s1 | -1.6 | 0 | 103 | 107 | i | 6 | 0.84
Cc1ccc(N(CN2CCCC2=O)C(=O)c2ccc(C)c(C)c2)cc1 | -2.2 | 4 | 96 | 100 | i | -53 | 0.9
COc1ccc2[nH]c3c(=O)n4c(nc3c2c1)SCCC4 | · | 4 | 99 | · | i | · | 0.93
CCCCCCCCCCCC(=O)NC(Cc1ccc(OC)c([N+](=O)[O-])c1)C(=O)O (stereo not given) | · | · | 99 | · | i | · | 1.1
O=C(O)CCCC(=O)NS(=O)(=O)c1ccc(Cl)cc1 | -2.2 | -2 | 31 | 58 | i | -393 | 1
CCOC(=O)CSC1=C(C#N)C(c2ccccc2Cl)C(C(=O)OC)C(=O)N1 (stereo not given) | -0.2 | -19 | 79 | · | i | · | 0.88
CCc1cccc(CC)c1NC(=S)Nc1cccc(Cl)c1Cl | · | · | 100 | · | i | · | 1
C=C1c2ccc(C)cc2NC(=O)N1c1ccccc1 | -4.6 | -7 | 87 | 62 | i | -52 | 0.96
Fc1ccc(CSc2nnc3ccccn23)c(Cl)c1 | · | 1 | 116 | 114 | i | 0 | 0.94
COC(=O)c1ccc(NC(=O)c2ccco2)cc1 | -0.9 | 0 | 96 | · | i | · | 0.79
COC(=O)c1ccccc1NC(=O)Nc1ccc(C)cn1 | · | -6 | 99 | · | i | · | 0.91
O=C(COC(=O)COc1ccc(Cl)cc1)Nc1ccc(N2CCOCC2)cc1 | · | -2 | 100 | · | i | · | 0.93
N#C/C(=C\c1cccnc1)C(=O)Nc1ccc(C(=O)O)cc1 | · | -1 | 103 | · | i | · | 0.95
CN(C1=C(NC(=O)c2ccccc2)C(=O)c2ccccc2C1=O)C1CCS(=O)(=O)C1 (stereo not given) | -0.6 | -9 | 101 | 121 | i | -24 | 0.66
Cc1ccc(NC(=O)C(NC2CCCC2)c2ccccc2)cc1Cl (stereo not given) | · | 5 | 92 | · | i | · | 0.88
COc1ccc(OCc2nnc(NC(=O)Nc3ccccc3F)s2)cc1 | · | · | 108 | · | i | · | 0.87
CCO/C(C)=N/n1c2nc3ccccc3nc2c2c(=O)n(CC(C)C)c(C)nc21 | -1.4 | -11 | 101 | · | i | · | 0.92
COC(=O)c1cccc(NC(=O)COc2cccc([N+](=O)[O-])c2)c1 | · | 3 | 94 | 125 | i | 42 | 1
O=C(/C(=C/c1cccc(Cl)c1)c1nc2ccccc2[nH]1)c1ccccc1 | -0.8 | 5 | 100 | · | i | · | 0.66
CSC1=C(C#N)C(C)CC(=O)N1 (stereo not given) | -2.1 | -12 | 105 | 32 | i | -356 | 0.79
CN(CCCN1CCOCC1)Cc1nc(-c2ccccc2)no1 | · | -1 | 109 | 91 | i | 70 | 0.92
CC(C)N=C1NN=C(c2ccc(F)cc2)CS1 | · | 7 | 97 | 123 | i | -33 | 1.1
N#Cc1cc([N+](=O)[O-])cnc1Nc1ccccc1 | -0.1 | -12 | 96 | 75 | i | -34 | 0.98
C=CCNC(=O)c1nc2ccccc2s1 | -1.9 | -13 | · | 201 | i | 56 | 1
Cc1cc(N2CCCC2=O)cc(C)c1S(=O)(=O)NCCOc1ccccc1 | -1.0 | -3 | 96 | 134 | i | -11 | 1
CCC(C)Sc1nc2c(cnn2-c2ccc(C)cc2)c(=O)[nH]1 (stereo not given) | -2.0 | -16 | 103 | · | i | · | 1
COc1cc(C2C(C(C)=O)=C(O)C(=O)N2c2ccc(Br)cn2)ccc1O (stereo not given) | -1.0 | 14 | 105 | 93 | i | 46 | 1.2
C#CCOCCOCCOCCNc1nc(N2CCN(C(=O)Cn3cc(CC(C)O)nn3)CC2)nc(N2CCN(C(=O)[C@H]([C@@H](C)CC)n3cc(CCCN=C(N)N)nn3)CC2)n1 (stereo not given in full) | -1.4 | -7 | 106 | 120 | i | 40 | 0.71
COc1ccc(C(=O)NCCCN2CCOCC2)cc1OC | -1.9 | -8 | 100 | 134 | i | 14 | 0.94
CC(C)(C)NC(=O)NC(=O)CN1CCN(c2ccc(O)cc2)CC1 | · | -8 | 75 | 40 | i | 64 | 1
CCSc1nnc(NC(=O)CCn2c(=O)oc3ccccc32)s1 | · | · | 102 | · | i | · | 0.99
O=C(C1COc2ccccc2O1)N1CCN(c2ccccc2Cl)CC1 (stereo not given) | · | -2 | 106 | 101 | i | -67 | 0.95
COc1ccccc1NC(=O)c1cc2cc(Br)ccc2cc1O | · | · | 84 | · | i | · | 0.87
COc1ccc(NC(=O)c2cc(-c3ccc(OC)c(OC)c3)on2)cc1OC | -0.4 | 4 | 103 | · | · | · | ·
C1=C(CCNC2=NCCCCC2)CCCC1 | -2.0 | -3 | 103 | 110 | i | 36 | 0.99
CCN(CC)C(=O)c1cn(C)c2ccc(S(=O)(=O)N(CC)CC)cc2c1=O | -1.8 | 0 | 106 | · | i | · | 0.78
O=S(=O)(c1ccc(S(=O)(=O)N2CCCC3(CCCCC3)C2)cc1)N1CCCCC1 | -1.5 | 1 | 101 | · | i | · | 0.79
Cc1c(NC(=O)c2ccccc2F)c(=O)n(-c2ccccc2)n1C | -2.4 | 15 | 101 | 82 | i | -12 | 0.97

Rows were taken by chance (roughly 1.2% active in at least one column).
